# ALR H2O2 inh – inhibitors of human ALR sulfhydryl oxidase, primary screen, biochemical, H2O2 detection, HRP-luminol luminescence, single point; actives 3.8% (n = 290,000); purified ALR, DTT oxidation; inhibition, % (no concentration beside the values);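 active = mean and each replicate at 75% or more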;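 also: stock transfer was 7.5 nL into about 7.5 µL; 0% = neutral wells and 100% = wells with inactivated enzyme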
# Target sequence (P55789 whole entry, looked up): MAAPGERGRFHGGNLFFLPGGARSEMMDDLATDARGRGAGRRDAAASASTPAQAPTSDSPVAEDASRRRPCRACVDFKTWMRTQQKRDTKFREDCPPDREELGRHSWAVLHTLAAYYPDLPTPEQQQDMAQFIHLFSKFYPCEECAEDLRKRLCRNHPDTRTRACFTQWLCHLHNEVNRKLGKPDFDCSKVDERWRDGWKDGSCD
# FGF22 binding – binders of human FGF22 protein, primary screen, FGF22 synaptogenesis inhibitor project, biophysical, thermal shift, single point. actives 1.5% (n = 340,000). recombinant FGF22 thermal shift, SYPRO orange fluorescence; percent of sucrose octasulfate shift, DMSO zero. Fibroblast growth factor 22 (Homo sapiens), Q9HCT0. calls only at 9.99 µM;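 active = melting point raised past a set limit in the mean and every replicate; three in four hits are not shown here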
# Target sequence (Q9HCT0 whole entry, looked up): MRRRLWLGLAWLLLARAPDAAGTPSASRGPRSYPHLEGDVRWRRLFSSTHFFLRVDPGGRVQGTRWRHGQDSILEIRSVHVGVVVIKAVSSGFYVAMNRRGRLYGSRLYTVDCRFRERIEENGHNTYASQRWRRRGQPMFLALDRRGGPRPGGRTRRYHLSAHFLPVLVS
# Vif TR-FRET – inhibitors of Vif binding to APOBEC3G peptide, primary screen, biochemical, TR-FRET, GST-Vif 1-94, biotin-A3G peptide, dose response retest (AID 1117319) | Virion infectivity factor (Human immunodeficiency virus type 1 group M subtype B (isolate … | TR-FRET GST-Vif / biotin-A3G peptide binding; higher % means a stronger effect; test concentration not given here; strong numbers were not always called active | one-dose inhibition, %; IC50 in µM for titrated hits | actives 0.57% (n = 260,000);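 active = above the screen mean plus three standard deviations and confirmed in dose response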;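 also: Vif residues 1-94 fused to GST binding biotinylated APOBEC3G peptide 110-148; 0% = full assay without inhibitor and 100% = GST in place of GST-Vif; retest series ran down from 100 µM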
# E coli growth – E. coli growth inhibition, primary screen, OD600; actives 0.21% (n = 330,000); OD600 absorbance (concentration not given with the values); Escherichia coli growth, 23 h; stronger effect = lower value;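 active = OD600 absorbance below the run mean of sample wells minus 3.6 SD, in any replicate, cut at about 0.56 in these data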;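 also: stock transfer was 300 nL into about 60 µL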
# HNF4A DNA FP – change in binding of human HNF4A to DNA, primary screen, biochemical, fluorescence polarization, FITC-DNA. activity change, % at 10 µM. 1 h. Hepatocyte nuclear factor 4-alpha (Homo sapiens), P41235. actives 0.3% (n = 360,000); in the data active = activity change above about 30%, passing the limit was not always enough;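 also: controls were the assay level and a saturating level of protein; the project sought stronger binding though the title names inhibitors; some compounds called inactive have numbers as strong as hits; positive values seem to mean higher polarization but the record does not say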
# Target sequence (P41235 whole entry, looked up): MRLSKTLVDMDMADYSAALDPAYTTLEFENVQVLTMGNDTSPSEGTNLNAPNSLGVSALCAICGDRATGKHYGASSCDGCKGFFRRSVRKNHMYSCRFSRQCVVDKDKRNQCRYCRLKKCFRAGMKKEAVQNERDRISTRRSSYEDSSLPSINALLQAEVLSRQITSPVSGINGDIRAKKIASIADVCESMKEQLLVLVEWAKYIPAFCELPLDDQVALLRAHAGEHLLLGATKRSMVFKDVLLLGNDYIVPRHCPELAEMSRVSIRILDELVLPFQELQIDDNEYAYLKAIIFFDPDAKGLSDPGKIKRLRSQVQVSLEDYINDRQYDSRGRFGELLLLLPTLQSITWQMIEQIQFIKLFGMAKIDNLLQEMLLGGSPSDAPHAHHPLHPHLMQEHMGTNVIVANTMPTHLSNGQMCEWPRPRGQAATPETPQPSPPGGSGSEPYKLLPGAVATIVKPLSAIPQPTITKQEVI
# MLL AF4-AF9 inh – inhibitors of AF4 peptide binding to AF9, primary screen, biochemical, AlphaScreen, biotin-AF4 peptide, FLAG-AF9, single point. Protein AF-9 (Homo sapiens), P42568. inhibition, % at 10 µM. actives 0.47% (n = 350,000). AID 651704, 2012;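 active = every replicate reaching a set inhibition limit, whatever the replicate mean, cut at about 25% in these data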;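 also: 0% = plate neutral control median and 100% = total signal loss; the record names both 10 and 1 µM as test concentration; the first replicate is given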
# rRNA inh HTS – reduced GFP signal of wild-type E. coli, primary screen, bacterial rRNA inhibitor project, GFP/RFP fluorescence, OD600, single point | E. coli WT GFP vs humanized-ribosome RFP mutants, 24 h; stronger effect = lower value; DMSO median 0, no signal -100 | GFP signal change (wild-type ribosome), % (test concentration not listed) | actives 1.6% (n = 350,000) | AID 720706, 2013;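 active = significant combined selectivity score with lowered wild-type GFP, culture density cut under 30%, mutant RFP and density less affected; inactive = any of these conditions unmet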; also: one replicate is shown; some compounds called inactive have numbers as strong as hits
# rRNA inh HTS OD600 – second read-out of rRNA inh HTS, no call of its own (marks repeat the call); OD600 change, %; measured here: OD600 growth;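 optical density of the mix in the first replicate; 0 = DMSO median and -100 = no signal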
# rRNA inh HTS RFP – recorded beside rRNA inh HTS, whose call it bears; RFP signal change, %; measured here: RFP humanized mutant strains;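 first replicate; 0 = DMSO median and -100 = no signal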
# Numbers without * were called inactive; i = inactive; x = no result given.
SMILES,ALR H2O2 inh,FGF22 binding,Vif TR-FRET,E coli growth,HNF4A DNA FP,MLL AF4-AF9 inh,rRNA inh HTS,rRNA inh HTS OD600,rRNA inh HTS RFP
COc1cc(OC)cc(C(=O)NC(C(=O)Nc2ccc(N3CCOCC3)cc2)C(C)C)c1 (centres undefined),x,i,-4%,0.63,1.7,-1.4,8,13,1.4
O=C(Nc1ccc(F)cc1)N1CCCCN2[C@@H](CO)[C@H](c3ccc(-c4cccc(F)c4)cc3)[C@@H]2C1,x,i,x,x,x,3.4,-54,-78,-6.9
CCCCCCCCNS(=O)(=O)CCNCc1ccc(OC)cc1,x,i,x,x,-0.4,-1.4,-26,-63,9.0
O=S(=O)(Nc1cc(S(=O)(=O)N2CCOCC2)ccc1N1CCCC1)c1cccs1,56,i,x,0.71,-2.4,1.6,13,6,3.6
O=C(C[C@@H]1C[C@@H]2c3cc(NC(=O)Nc4ccccc4F)ccc3O[C@@H]2[C@H](CO)O1)NCCc1ccccc1,x,i,x,x,x,-0.4,-5,3,-5.7
CCN(CC)CCCn1c2c(c(SCC(=O)Nc3ccc4c(c3)OCCO4)nc1=O)CCC2,98*,i,0%,0.66,-0.5,-14,12,20,-1.7
COc1c(C)cc(C(O)c2ncc(-c3ccccc3F)[nH]2)cc1C (centres undefined),x,i,x,x,-2.5,3.5,x,x,x
Cc1noc(C)c1S(=O)(=O)Nc1ccc2c(c1)CC(=O)N([C@H](C)CO)C[C@H](C)[C@@H](CN(C)C)O2,x,i,x,x,x,-0.7,4,2,-2.6
COc1cc2c(cc1NC(=O)COC(=O)/C=C/c1ccccc1)oc1ccccc12,-6,i,x,0.67,-2.4,30*,6,7,7.7
Cc1occc1C(=O)N=Nc1c(O)n(C)c2ccccc12,-18,x,3%,0.71,-1.6,x,x,x,x
CCCCC[C@H](C)N1C[C@H](COCc2ccccc2)Oc2cc(N3CCC[C@H]3C(N)=O)ccc2S1(=O)=O,x,i,x,x,4.1,0.5,4,5,1.7
CSc1nnc(-c2sccc2-n2cccc2)o1,12,i,0%,0.65,-1.6,3.4,-5,-20,-5.7
CCN(CC)c1ccc(/C=N/NC(=O)c2nnn(-c3nonc3N)c2C(C)C)c(O)c1,-10,i,x,x,3.0,-9.1,-6,2,-2.5
CCCSc1nsc(SCCC)c1C#N,2,x,-5%,0.69,0.3,x,x,x,x
CCOC(=O)CN1C(=O)COc2ccc(Cl)cc21,-6,x,4%,0.65,-1.7,x,x,x,x
COc1ccc(Cn2c(C)c(C)c(C#N)c2NC(=O)Nc2ccc(F)cc2)cc1,11,x,4%,0.73,-1.7,x,x,x,x
CN1CCN(S(=O)(=O)c2cccc(C(=O)Nc3sccc3C#N)c2)CC1,7,i,-13%,0.71,89,1.7,x,x,x
CCCCNS(=O)(=O)c1cccc(NC(=O)[C@@H]2O[C@H](CO)[C@H](O)[C@H](O)[C@H]2O)c1,x,i,x,x,3.7,-2.2,1,16,-2.0
Cc1nn(C2CCS(=O)(=O)C2)c(C)c1CN(C)C(=O)c1ccc(Cl)cc1 (centres undefined),x,i,x,0.63,0.9,0.9,3,5,-0.7
COc1ccccc1N1N=C(C(=O)c2ccccc2)C2C(=O)N(c3ccc(Br)cc3)C(=O)C21 (centres undefined),-2,i,-23%,0.71,48,-1.6,69,6,5.5
Cc1ccccc1C1c2[nH]c3ccccc3c2CCN1Cc1cccn1-c1ncccn1 (centres undefined),-16,i,13%,0.7,5.1,21,-1,-3,-1.7
O=C(NCC1CCCO1)c1ccc(Cl)c(S(=O)(=O)Nc2ccccc2)c1 (centres undefined),-5,i,x,0.68,3.0,-1.3,2,6,-0.2
O=c1n(Cc2ccccc2)c(O)c2n1Cc1ccccc1N=C2c1ccccc1,x,i,x,x,4.7,-3.3,-5,-7,-0.7
O=C(CNC(=O)c1ccc(Cl)cc1Cl)OCc1nnc(-c2ccccc2)o1,-16,i,2%,0.7,1.8,-1.8,11,6,2.1
Cc1nc2ccc(S(=O)(=O)NCC(=O)Nc3cccc(F)c3)cc2s1,-3,i,12%,0.64,-0.6,-3.6,5,16,2.9
COc1cc(OC)cc(C(=O)NNC(=O)c2cc3c(s2)CCCC3)c1,-15,i,26%,0.65,-0.1,0.0,8,9,1.6
N#C[C@H]1[C@@H](c2ccccc2)[C@@H](CO)N1S(=O)(=O)Cc1ccccc1,x,i,x,x,x,-2.4,5,16,-5.1
CC(C)NC(=O)N(C)C[C@H]1Oc2ccc(NC(=O)CCCCCC(=O)Nc3ccccc3N)cc2CC(=O)N([C@@H](C)CO)C[C@@H]1C,x,i,x,x,x,0.2,4,2,-3.8
NCC(O)CN(c1ccccc1)c1ccccc1 (centres undefined),99*,x,17%,0.66,-1.0,2.4,19,11,0.6
COc1ccc(-c2csc(NC(=O)Cc3cc(OC)c(OC)c(OC)c3)n2)cc1OC,-5,i,x,0.69,8.0,0.5,4,-3,-3.5
CNc1ccccc1C(=O)OC(C)C(=O)Nc1ccc(S(=O)(=O)N2CCCC2)cc1 (centres undefined),1,i,-4%,0.72,-1.5,-6.4,-4,-18,-1.0
CCCc1cc(=O)[nH]c(SCC(=O)N(C)C2CCS(=O)(=O)C2)n1 (centres undefined),5,x,4%,0.76,1.0,x,x,x,x
CCOC1(NC(=O)c2ccccc2)C(C)=CC(=O)C=C1C,-4,x,2%,0.71,-1.6,x,x,x,x
Cc1cc(-c2nnn(CCCOC(C)(C)C)c2C)ccc1-c1cn(CCCOC(C)(C)C)nn1,x,i,6%,x,2.8,-6.9,1,15,6.0
CCN(CC)C(=O)CSc1nnc(CNc2ccc(F)cc2)n1-c1ccccc1,7,i,-2%,0.71,0.6,3.2,-3,-1,0.2
O=C(COc1ccc(S(=O)(=O)NC2CCCCC2)cc1Cl)NCc1ccc2c(c1)OCO2,-8,i,17%,0.72,1.4,0.3,-10,-29,26
CCCCCCCCC(=O)NCCOc1ccc(OC)cc1,x,x,-5%,0.69,-0.4,x,x,x,x
COc1ccc(CN(C)C(=O)Cn2cnc3c(SC)nc(N)nc32)cc1OC,x,i,-2%,0.68,1.0,-2.7,10,-1,-2.0
O=C(NCC1CCCO1)C1CCC(N2C(=O)c3ccccc3C2=O)CC1 (centres undefined),22,x,1%,0.65,4.0,x,x,x,x
Cc1ccc(C2C(C#N)=C(N)Oc3cc(C)oc(=O)c32)o1 (centres undefined),57,i,-6%,0.71,-1.8,-6.2,17,6,4.6
Cc1ccc(OCC(=O)O/N=C(\N)c2cccnc2)cc1,-2,i,x,0.63,4.5,-2.4,0,-2,0.4
O=C(CNC(=O)c1cccc(Br)c1)NCCc1nc2ccccc2[nH]1,2,x,-2%,0.64,0.0,x,x,x,x
O=C(CCN1C(=O)/C(=C/c2ccccc2F)SC1=S)Nc1cccnc1,-1,i,x,0.73,-1.4,0.3,15,21,2.9
COc1ccc(OCc2cc(C(=O)NC3CCOCC3)no2)c2ccccc12,-19,i,8%,0.67,0.8,2.2,2,-43,-11
COc1ccc(CCN2C(=O)CC(NC34CC5CC(CC(C5)C3)C4)C2=O)cc1OC (centres undefined),-29,i,18%,0.7,4.4,3.2,-14,-20,-4.3

# 3 compounds out of the list, arranged by molecular weight, descending:
SMILES,ALR H2O2 inh,FGF22 binding,Vif TR-FRET,E coli growth,HNF4A DNA FP,MLL AF4-AF9 inh,rRNA inh HTS,rRNA inh HTS OD600,rRNA inh HTS RFP
O=C(COc1ccc(S(=O)(=O)NC2CCCCC2)cc1Cl)NCc1ccc2c(c1)OCO2,-8,i,17%,0.72,1.4,0.3,-10,-29,26
Cc1cc(-c2nnn(CCCOC(C)(C)C)c2C)ccc1-c1cn(CCCOC(C)(C)C)nn1,x,i,6%,x,2.8,-6.9,1,15,6.0
Cc1ccc(OCC(=O)O/N=C(\N)c2cccnc2)cc1,-2,i,x,0.63,4.5,-2.4,0,-2,0.4

# Next part
SMILES,ALR H2O2 inh,FGF22 binding,Vif TR-FRET,E coli growth,HNF4A DNA FP,MLL AF4-AF9 inh,rRNA inh HTS,rRNA inh HTS OD600,rRNA inh HTS RFP
CN1CCN(C(=O)CC2(CC(=O)O)CCCC2)CC1,-2,i,-1%,0.68,3.0,-1.6,13,15,-2.4
COc1ccc(Cl)c(-c2cc(C(=O)Nc3ccccc3)[nH]n2)c1,x,i,x,x,4.8,-1.9,-60,-64,-21
O=C(O)c1cccc(-c2csc(C(O)c3ccc(F)c(F)c3)n2)c1 (centres undefined),x,i,x,x,-0.8,0.9,-4,-21,-6.4
COc1ccc(NCC(=O)Nc2cc(S(=O)(=O)N3CCOCC3)ccc2N2CCOCC2)c(OC)c1,-28,x,x,0.7,0.7,1.3,22,12,-8.0
CC1(C(=O)Nc2cccc(C(F)(F)F)c2)Cc2c(-c3ccccc3)ccnc2O1 (centres undefined),x,i,x,x,3.4,-0.5,4,-8,1.1
COCC(C)n1c(SCC(=O)NCCC2=CCCCC2)nc2ccccc2c1=O (centres undefined),-10,x,-6%,0.66,-2.5,x,x,x,x
O=C(Cc1ccc(O)cc1)N/N=C/c1cccnc1,58,i,-3%,x,1.7,1.3,14,25,0.8
COC(=O)CC1=Nc2ccccc2NC(=O)C1,x,x,1%,0.72,0.1,x,x,x,x
CC(C)[C@H](NC(=O)Nc1ccc2c(c1)OCCO2)C(=O)O,-1,x,1%,0.68,0.6,x,10,10,-1.9
Cc1ccc(-c2cc(-c3ccc(F)cc3)n[nH]2)c(O)c1,-6,i,x,0.58,-3.6,4.2,-42,-47,-9.5
Cc1ccc(S(=O)(=O)N[C@@H]2CC[C@H](CCn3cc(-c4cccc(F)c4)nn3)O[C@@H]2CO)cc1,x,i,x,x,x,-0.1,-6,-16,2.4
Clc1ccc(-c2nc3ccncc3[nH]2)cc1,99*,x,x,0.65,-1.7,x,x,x,x
O=C(O)CC1(CC(=O)Nc2nccs2)CCCCC1,x,i,x,x,1.6,-5.1,3,-1,4.3
CCOC(=O)CSC1=C(C#N)C(C)C2=C(CCCC2=O)N1 (centres undefined),x,x,10%,0.7,-0.7,x,x,x,x
CC(C)NC(=O)Nc1cccc2c1O[C@H](CN(C)CC1CC1)[C@@H](C)CN([C@H](C)CO)C2=O,x,i,x,x,x,-15,3,3,-1.3

# Six records picked at random from those above, as already listed:
SMILES,ALR H2O2 inh,FGF22 binding,Vif TR-FRET,E coli growth,HNF4A DNA FP,MLL AF4-AF9 inh,rRNA inh HTS,rRNA inh HTS OD600,rRNA inh HTS RFP
Clc1ccc(-c2nc3ccncc3[nH]2)cc1,99*,x,x,0.65,-1.7,x,x,x,x
COCC(C)n1c(SCC(=O)NCCC2=CCCCC2)nc2ccccc2c1=O (centres undefined),-10,x,-6%,0.66,-2.5,x,x,x,x
COC(=O)CC1=Nc2ccccc2NC(=O)C1,x,x,1%,0.72,0.1,x,x,x,x
CC1(C(=O)Nc2cccc(C(F)(F)F)c2)Cc2c(-c3ccccc3)ccnc2O1 (centres undefined),x,i,x,x,3.4,-0.5,4,-8,1.1
O=C(O)c1cccc(-c2csc(C(O)c3ccc(F)c(F)c3)n2)c1 (centres undefined),x,i,x,x,-0.8,0.9,-4,-21,-6.4
Cc1ccc(-c2cc(-c3ccc(F)cc3)n[nH]2)c(O)c1,-6,i,x,0.58,-3.6,4.2,-42,-47,-9.5

# The list is partial; rates above refer to the full screens.
